YopH PTP inh: YopH tyrosine phosphatase inhibitors, primary screen, biochemical, fluorescence Ex485/Em525 | YopH tyrosine phosphatase [Yersinia enterocolitica] | inhibition, %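 (about 10 µM by stock and volumes)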 | hit rate 0.16% among 140,000 | AID 898, 2007;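 active = inhibition of 50% or more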;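 note: controls were vehicle for no effect and minimum signal wells for full effect; inactives centre near -20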
Arbovirus inh: antivirals against arbovirus infection, primary screen, cell-based, full library, 10K replicate subset; arbovirus infection cell-based antiviral screen; inhibition, % at 10 µM; hit rate 0.37% among 200,000;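 active = inhibition from about 30%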;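 note: bluetongue infection of BSR cells; cell survival read as ATP light after 72 h; 0% = infected wells without compound and 100% = uninfected wells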
Mtb H37Rv: M. tuberculosis H37Rv growth inhibitors, H37Rv strain (AID 1626); M. tuberculosis H37Rv growth inhibition; higher % means a stronger effect; one-dose inhibition, % at 10 µM; IC50 in µM for titrated hits; hit rate 0.95% among 220,000;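 active = confirmed in a dose series; inconclusive = inhibition above 80% but not taken into the dose series; inactive = below 80% or under 30% at every dose of the series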;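 note: bacteria incubated seven days before Alamar blue readout; 0% = bacteria only wells and 100% = bacteria with antibiotic wells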
RecA intein inh: Mtb RecA intein splicing inhibitors, primary screen, biochemical, fluorescence, HTS. Protein RecA (Mycobacterium tuberculosis (strain ATCC 25618 / H37Rv)), P9WHJ3. cell-free RecA intein splicing. inhibition, %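 (about 9 µM by stock and volumes)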. hit rate 0.75% among 290,000; in the data active = inhibition above about 30%; inconclusive = no clear call, values can overlap the other calls;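 note: 0% = vehicle wells and 100% = reference inhibitor control wells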
Target sequence (P9WHJ3 whole entry, looked up): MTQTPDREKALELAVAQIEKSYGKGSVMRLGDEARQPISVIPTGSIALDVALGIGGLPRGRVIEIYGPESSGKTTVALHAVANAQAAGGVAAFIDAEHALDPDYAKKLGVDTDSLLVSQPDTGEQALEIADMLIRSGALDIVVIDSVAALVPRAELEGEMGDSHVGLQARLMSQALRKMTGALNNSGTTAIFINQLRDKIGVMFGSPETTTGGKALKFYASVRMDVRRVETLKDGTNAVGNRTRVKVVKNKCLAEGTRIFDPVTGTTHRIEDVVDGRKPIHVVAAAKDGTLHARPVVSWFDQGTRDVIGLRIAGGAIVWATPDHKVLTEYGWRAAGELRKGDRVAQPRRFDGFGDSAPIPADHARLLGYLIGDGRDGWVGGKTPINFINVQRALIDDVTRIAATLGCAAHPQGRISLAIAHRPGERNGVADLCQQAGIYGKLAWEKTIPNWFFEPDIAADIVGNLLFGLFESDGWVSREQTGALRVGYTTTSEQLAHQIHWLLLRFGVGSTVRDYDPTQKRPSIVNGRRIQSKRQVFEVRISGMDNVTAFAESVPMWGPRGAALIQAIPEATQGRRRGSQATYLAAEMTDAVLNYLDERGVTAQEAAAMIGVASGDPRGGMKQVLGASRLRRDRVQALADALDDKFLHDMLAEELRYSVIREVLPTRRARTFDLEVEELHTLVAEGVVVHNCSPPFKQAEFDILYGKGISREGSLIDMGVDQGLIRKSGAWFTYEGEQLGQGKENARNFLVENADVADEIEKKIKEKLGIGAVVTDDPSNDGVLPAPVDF
Mtb bLac sens: beta-lactam sensitization of Mtb H37Rv, H37Rv. M. tuberculosis H37Rv growth with meropenem, percent inhibition; hits of this screen are not shown here. inhibition, % at 25 µM. hit rate 0.27% among 330,000;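 active = about 74% or more and at least 40 points above the plate without the antibiotic, then above 30% in a dose series; inconclusive = first-round hits that could not be retested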;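 note: growth measured after seven days incubation then overnight dye step; 0% = bacteria only wells and 100% = bacteria with antibiotic; twin plates without the antibiotic show which effects depend on it; some results filed as inactive read as strong as hits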
Arbovirus inh repeat: recorded beside Arbovirus inh, whose call it bears; inhibition, %; measured here: 10K subset replicate screen; many hits read low in the repeat;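 first of two repeat runs on a subset; 0% = infected and 100% = uninfected wells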
The depositor's hits bear a star; u = inconclusive; x = not tested or not shown. These rows are one share of the data. The share of hits here may be higher or lower than overall.

SMILES	YopH PTP inh	Arbovirus inh	Mtb H37Rv	RecA intein inh	Mtb bLac sens	others
COc1ccc(NC(=O)CN(C)C(=O)c2ccc(NS(=O)(=O)c3ccc(C)c([N+](=O)[O-])c3)cc2)cc1	x	x	x	0.2	-2
COc1ccc(NCc2nnc(SCC(=O)Nc3nc(-c4ccccc4)cs3)n2-c2ccccc2)cc1	-25	-38	32%	1.7	53
Cc1cccc(N(C)C(=O)CCS(=O)(=O)c2cc3c(cc2Cl)NC(=O)CO3)c1	x	x	x	0.9	2
O=C(CCCCCNc1nc(=S)[nH]c2ccccc12)NCCc1ccc(Cl)cc1	x	7	0%	x	-7
COc1ccc2[nH]c(C(=O)O)c(NS(=O)(=O)c3ccc(OC)c(OC)c3)c2c1	-35	7	-4%	3.4	-5
O=C(N/N=C\c1ccc(-c2ccc([N+](=O)[O-])cc2)o1)C1COc2ccccc2O1 (stereo unspecified)	-30	-5	u	-5.2	97
CC(/C=C1\SC(=S)N(NS(=O)(=O)c2ccccc2)C1=O)=C\c1ccccc1	x	x	-13%	19	2
COc1ccc2cc3cc(C(=O)NCC4COc5ccccc5O4)oc3nc2c1 (stereo unspecified)	-20	3	x	-2.9	-3
O=C(CN1CCC(n2nnc3cc(C(F)(F)F)ccc32)CC1)NNC(=O)c1ccco1	x	-3	-6%	-1.1	-3
CCN(CC(=O)NCc1ccncc1)S(=O)(=O)c1ccccc1	x	x	x	-1.0	-13
[O-]/[N+](=C/c1ccco1)c1ccccc1	x	x	x	-8.0	-4
Cc1ccc(-n2c(CCc3nc4ccccc4[nH]3)n[nH]c2=S)cc1	x	0	-2%	0.8	-3
O=C(O)C1CCCN1C(=O)c1cccs1 (stereo unspecified)	-50	0	-8%	-0.2	-9
COc1ccc(NCN2C(=O)C3C4C=CC(C4)C3C2=O)cc1 (stereo unspecified)	x	-14	u	-1.8	-1
O=C(Nc1ccccc1)OCCNC(=O)c1cccc(Br)c1	x	x	x	1.4	-3
Oc1ccc(CCNc2c3ccccc3nc3ccccc23)cc1O	x	x	x	-8.6	-1
COc1ccc(-c2cnc(N)n2CC2CCCO2)cc1 (stereo unspecified)	-50	1	2%	4.9	0
Cc1nn(C2CCS(=O)(=O)C2)c(Cl)c1/C=C/C(=O)OCC(=O)c1c[nH]c2ccccc12 (stereo unspecified)	-19	-5	5%	0.2	2
CCOc1cc(C2C3=C(CCCC3=O)Nc3nc(C(=O)OC)nn32)ccc1OC (stereo unspecified)	-27	5	0%	0.2	-12
CN(C)c1cc(-c2ccc(F)cc2)oc(=O)c1Cl	x	x	-3%	-1.6	-2
COc1cccc(CN2CCN(C(=O)CCc3nnc(C4CCCCC4)o3)CC2=O)c1	x	x	1%	1.9	1
Cc1ccc(S(=O)(=O)Cc2ccc([N+](=O)[O-])cc2)cc1	x	x	x	0.5	-6
COc1cccc(/C=C/c2onc(C)c2S(=O)(=O)N2CCC(C(=O)NC3CCCCCC3)CC2)c1	x	x	x	1.0	-8
Cc1cc(C)n2nc(SCCCC(=O)c3ccccc3)nc2n1	x	15	7%	0.1	-12
COC(=O)c1ccc(N2C(=O)CC(N3CCN(c4ccccc4)CC3)C2=O)cc1 (stereo unspecified)	0	x	-1%	-1.6	0
Cc1cccc(NS(=O)(=O)c2ccc(-c3cnc(C4CC4)o3)cc2)c1	x	x	x	-6.2	0
Cc1onc(-c2ccccc2Cl)c1C(=O)Nc1ccccc1C(=O)NC(C)C	-39	10	-2%	2.4	-1
Cc1[nH]n(-c2ccccc2)c(=O)c1N=Nc1ccccc1O	x	-30	6%	10	x
COc1ccc(C(CC(=O)O)NC(=O)OC(C)(C)C)cc1 (stereo unspecified)	-5	3	3%	-1.4	-3
COC(=O)c1ccc(CSc2nnc(NC(=O)C3CC(=O)N(Cc4ccc(C)cc4)C3)s2)cc1 (stereo unspecified)	-9	20	2%	-3.2	1
Cn1c(-c2ccc(F)cc2)cnc1SCC(=O)Nc1ccccc1	x	11	-6%	-1.8	70
Cc1cc(C)[n+](Cc2ccccc2)cc1C(N)=O	x	x	x	3.3	-7
Cc1ccc(NC(=O)c2cc(C)nn2-c2ccccc2)cc1	-15	-13	7%	-1.0	-8
Cc1ccc(C(=O)Nc2sc3c(c2C(=O)O)CCCC3)o1	x	x	x	-2.5	11
COc1cccc(/C=N/NC(=O)CC2C(=O)NN=C2C)c1OC (stereo unspecified)	-12	4	5%	0.6	-10
Cn1c(=O)c2c(n(C)c1=O)=NC1(CCCCC1)ON=2	4	-4	-2%	-0.8	-4
COc1ccccc1N1CCN(C2CCCN(C(=O)c3ccccn3)C2)CC1 (stereo unspecified)	x	x	x	1.7	3
Cc1nc2ncnn2c(Nc2ccc3c(c2)OCCO3)c1C	-34	x	-7%	0.6	15
COc1ccccc1C(CC(=O)Nc1ccc(C)c(C)c1)c1ccc(OC(C)C)cc1 (stereo unspecified)	-5	-7	7%	-1.4	2
COC(=O)COc1ccc(S(=O)(=O)N2CCc3ccccc3C2)cc1	13	6	36%	5.6	85

Reprinted from the part before: 5 compounds, followed by the next part.
SMILES	YopH PTP inh	Arbovirus inh	Mtb H37Rv	RecA intein inh	Mtb bLac sens	others
Cn1c(=O)c2c(n(C)c1=O)=NC1(CCCCC1)ON=2	4	-4	-2%	-0.8	-4
COc1ccccc1N1CCN(C2CCCN(C(=O)c3ccccn3)C2)CC1 (stereo unspecified)	x	x	x	1.7	3
Cc1nc2ncnn2c(Nc2ccc3c(c2)OCCO3)c1C	-34	x	-7%	0.6	15
COc1ccccc1C(CC(=O)Nc1ccc(C)c(C)c1)c1ccc(OC(C)C)cc1 (stereo unspecified)	-5	-7	7%	-1.4	2
COC(=O)COc1ccc(S(=O)(=O)N2CCc3ccccc3C2)cc1	13	6	36%	5.6	85
COc1cc(-c2cc(C(=O)N(C)Cc3ccccc3)c3ccccc3n2)cc(OC)c1OC	x	x	x	0.9	1
CCN1C(=O)[C@@H]2[C@H](C1=O)[C@@H]1C(=O)Nc3ccccc3C(=O)N1[C@@H]2c1ccc(Br)cc1	x	x	x	-5.8	-5
O=C1OC(c2ccccc2)=N/C1=C\C=C\c1ccco1	x	3	5%	0.0	76
O=S(=O)(NCC1CCCO1)c1ccccc1 (stereo unspecified)	x	x	x	1.8	-1
CCOc1nc(SC(C(C)=O)C(=O)Nc2ccccc2)nc(N(C)C)n1 (stereo unspecified)	-189	4	1%	-3.1	1
CC(=O)CN1C(=O)NC2(CCCc3ccccc32)C1=O (stereo unspecified)	x	x	x	-1.4	4
Cc1nnc(Sc2cc(C(=O)NCc3ccco3)c3ccccc3n2)s1	-23	-1	0%	0.3	2
Cc1ccc(C(=O)N2c3ccccc3NC(=O)C2C)cc1 (stereo unspecified)	x	-11	-2%	-2.8	2
CCN1CCN(C(=O)CCc2nnc(CCc3ccccc3OC)o2)[C@@H](C)C1=O	x	x	x	-1.3	1
Cc1c(Cl)c([N+](=O)[O-])nn1CCCC(=O)N(Cc1ccccc1)Cc1ccccc1	-19	-7	15%	13	-3
COc1nc(N(CC(N)=O)S(=O)(=O)c2ccccc2)nc(C)c1Cl	-27	-3	-4%	-0.7	-6
O=C(NC12CC3CC(CC(C3)C1)C2)c1cc([N+](=O)[O-])ccc1N1CCOCC1	x	6	-3%	3.2	2
CCCCN(C)C1=Nc2cccc3cccc1c23	19	12	x	-76	3
O=C1CSC(=S)N1c1cccc(Cl)c1	x	x	x	12	6
Cc1ccc(S(=O)(=O)Nc2ccc3c(c2)OCCO3)cc1	x	4	15%	-0.6	9
O=C(CCSCc1ccccc1F)NCc1cccs1	x	2	-5%	0.5	0
O=C(O)/C=C/c1cn(-c2ccccc2)nc1-c1cccs1	x	9	2%	-3.1	49
O=C1/C(=C/c2ccc3c(c2)OCO3)Oc2cc(OCC(=O)N3CCC[C@H]3C(=O)O)ccc21	x	x	x	-6.9	1
O=C(Nc1ccccc1NC(=O)c1ccco1)c1ccccc1	x	x	x	0.5	4
CN(Cc1nccs1)C(=O)C1CCC(=O)N(CCc2cccc(F)c2)C1 (stereo unspecified)	x	x	x	-0.7	4

Retrieved one by one from the entries so far, three records:
SMILES	YopH PTP inh	Arbovirus inh	Mtb H37Rv	RecA intein inh	Mtb bLac sens	others
O=C(O)/C=C/c1cn(-c2ccccc2)nc1-c1cccs1	x	9	2%	-3.1	49
O=C(Nc1ccccc1NC(=O)c1ccco1)c1ccccc1	x	x	x	0.5	4
Cc1ccc(S(=O)(=O)Nc2ccc3c(c2)OCCO3)cc1	x	4	15%	-0.6	9

(continued)
SMILES	YopH PTP inh	Arbovirus inh	Mtb H37Rv	RecA intein inh	Mtb bLac sens	others
COc1ccc(NC2c3ccccc3C(=O)N2Cc2ccccc2Cl)cc1OC (stereo unspecified)	x	x	11%	2.6	-9
COc1ccccc1-c1cc(C(=O)NC2CCN(C)CC2)c2ccc(Cl)c(C)c2n1	x	x	x	1.4	100
Brc1cccc(OCCCCn2cncn2)c1	x	x	x	-2.2	-2
Cc1ccc(OCC(O)CN2CCN(Cc3ccc4c(c3)OCO4)CC2)cc1C (stereo unspecified)	-3	-15	-1%	0.5	-9
c1ccc(-c2nnc(CSc3nncs3)o2)cc1	1	1	-2%	-2.6	4	Arbovirus inh repeat=1
Cc1c(-c2ccccc2)c(=O)oc2cc(O)ccc12	x	x	x	-55	41
CCOc1ccccc1N(CC)C(=O)c1nn(C)c2c1CSc1ccccc1-2	x	x	x	12	1
Cn1nnc(NC(=O)c2ccc([N+](=O)[O-])cc2Cl)n1	x	11	-6%	-0.5	0
Cc1nccn1CCCN1C(=O)OC2(CCCCC2)C1(C)O (stereo unspecified)	3	1	-7%	2.0	-5
CC1=CC(C)(C)Nc2ccc(C)cc21	-29	1	0%	-1.5	-2
CCc1ccc2c(CC(=O)Nc3nnc(C4CC4)s3)coc2c1	-94	15	6%	3.3	-6
COC(=O)[C@@]12CCCCN1[C@H](c1ccc(-c3cccc(Cl)c3)c(OC)c1)[C@H]1C(=O)N(C)C(=O)[C@H]12	x	x	x	4.5	-6
CCCN(CCC)CCCNC(=O)c1cc2cc3ccc(Cl)cc3nc2o1	x	x	x	-1.6	84
CCOc1cc(C(=O)OCC(=O)NC(C)c2ccccc2)ccc1OCC(=O)N1CCOCC1 (stereo unspecified)	x	16	-1%	2.3	5
COc1ccc(C(=O)N2CCN(c3ccc(NC(=O)c4cccs4)cc3)CC2)cc1	x	x	x	-4.9	-18
O=C(NCc1nc2ccccc2[nH]1)C1=C[C@H](c2ccc(C(F)(F)F)cc2)C[C@H](OCc2ccc(CO)cc2)O1	x	-13	6%	1.8	78
CCCCn1c(N)c(N(CCOC)C(=O)c2ccc(F)c(S(=O)(=O)N3CCOCC3)c2)c(=O)[nH]c1=O	x	x	x	-3.1	-3
Cc1ccc(C)c(NC(=O)c2ccccc2C(=O)c2ccccc2)c1	x	-1	-1%	5.2	-5
Cc1ccc(O)c(CNc2nccs2)c1	x	x	x	1.8	0
Cc1cccc(N(CC(=O)Nc2ccc(CC#N)cc2)S(C)(=O)=O)c1	-21	4	x	-0.9	-3

Arranged by number of heavy atoms (ascending): some entries from above
SMILES	YopH PTP inh	Arbovirus inh	Mtb H37Rv	RecA intein inh	Mtb bLac sens	others
Brc1cccc(OCCCCn2cncn2)c1	x	x	x	-2.2	-2
Cc1ccc(OCC(O)CN2CCN(Cc3ccc4c(c3)OCO4)CC2)cc1C (stereo unspecified)	-3	-15	-1%	0.5	-9
COc1ccccc1-c1cc(C(=O)NC2CCN(C)CC2)c2ccc(Cl)c(C)c2n1	x	x	x	1.4	100

Additional results follow.
SMILES	YopH PTP inh	Arbovirus inh	Mtb H37Rv	RecA intein inh	Mtb bLac sens	others
Cc1cc(NS(=O)(=O)c2ccc(NC(=S)NC(=O)c3ccc(F)cc3Cl)cc2)no1	-9	9	4%	0.3	7
Cn1c(CN2CCCCC2)nc2cc(NC(=O)c3cccc(Br)c3)ccc21	5	-29	4%	5.1	-17
CCC(C)NS(=O)(=O)c1ccc(OCC(=O)Nc2ccc3c(c2)OCCO3)cc1 (stereo unspecified)	-5	-4	-7%	3.2	15
O=C(NCCCn1ccnc1)c1c(F)cccc1F	x	x	x	-0.2	-3
COCCSc1nnc(-c2cnccn2)o1	-2	0	-2%	-0.5	2
